# VDR inh: vitamin D3 receptor (human) inhibition; VDR-SRC2-3 peptide fluorescence polarization, 2 h; Potency, µM, for inactives: max response, negative = inhibition, most hits filed as inhibitors; 400,000 compounds, 0.93% hits; active = well fitted inhibition curve with a large enough effect; inconclusive = small, poorly fitted or top-dose-only effect, or another doubt; inactive = no such curve, though single readings can be large or run the other way; note: series mostly up to about 120 µM
# Target sequence (P11473 whole entry, looked up): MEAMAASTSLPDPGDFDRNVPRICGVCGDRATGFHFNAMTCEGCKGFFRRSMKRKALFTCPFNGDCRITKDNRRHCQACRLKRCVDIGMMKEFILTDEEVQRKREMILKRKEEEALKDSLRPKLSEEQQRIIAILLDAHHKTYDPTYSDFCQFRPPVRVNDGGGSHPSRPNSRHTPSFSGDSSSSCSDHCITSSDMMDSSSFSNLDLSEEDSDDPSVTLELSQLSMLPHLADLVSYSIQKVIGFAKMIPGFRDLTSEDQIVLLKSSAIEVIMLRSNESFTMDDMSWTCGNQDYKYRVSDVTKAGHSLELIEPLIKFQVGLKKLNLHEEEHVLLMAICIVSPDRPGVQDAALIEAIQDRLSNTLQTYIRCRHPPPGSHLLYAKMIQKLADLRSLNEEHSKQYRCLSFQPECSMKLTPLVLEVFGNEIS
#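 Fluorescence polarization assay measuring small-molecule disruption of VDR binding to the coregulator peptide SRC2-3. Compounds were pin-transferred (23 nl) into the reagent mix and incubated 2 h at room temperature before reading.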
# An asterisk follows results filed as active; ? = inconclusive; & = joins results of further samples. % is set by controls: 0 for no effect and ±100 for the full control effect; potency is the fitted concentration of half-maximal effect.
SMILES | VDR inh
Cc1ccc(C)c(NC(=O)CSc2ncc(S(=O)(=O)c3ccc(C)c(Cl)c3)c(=O)[nH]2)c1 | 4.0%
C=CCn1c(SCC(=O)N2CCCCC2)nc(O)cc1=O | -9.7%
COc1ccc(NC(=O)c2ccc(Br)c(S(=O)(=O)N3CCOCC3)c2)cc1 | -18.7%
O=C(c1ccc(F)cc1)N1CCN(c2ccc([N+](=O)[O-])c(N3CCOCC3)c2)CC1 | -24.5%
CC(=O)c1ccc(NC(=O)C2(c3ccccc3)CCOCC2)cc1 | -0.2%
O=C(Cn1cnc2cc([N+](=O)[O-])ccc2c1=O)NC(c1ccccc1)c1ccccc1 | -8.2%
COc1cc(C)nn1-c1ccc(Cl)cc1 | -23.8%
N#CC1=C2SCN(Cc3ccccc3)CN2C(=O)CC1c1cccs1 (stereo not drawn) | ?
CCCC(=O)C1=C(O)C(C(=O)OC)C(C)(C)CC1=NCCc1ccccc1 (stereo not drawn) | -1.3%
COc1ccc2[nH]c3c(c2c1)CCN1C(=O)N([C@@H](C)C(=O)NCc2ccccc2OC)C(=O)[C@]31C | -7.3%
COc1ccc(C(=O)C2CCN(C(=O)c3ccco3)CC2)cc1 | -0.8%
O=C(Cn1c(=O)n(-c2ccccc2)c(=O)c2c3c(sc21)CCCC3)Nc1ccc(F)cc1 | -1.3%
Cc1cc(NC(=O)CSc2nnc(C3CC3)n2C)no1 | 18.7%
COc1ccccc1CNC(=O)CCn1cnc2ccccc2c1=O | 17.2%
CC(OC(=O)CNC(=O)c1ccc(Cl)c(Cl)c1)C(=O)N1CCOCC1 (stereo not drawn) | -13.7%
CCOC(=O)C1=C(c2ccccc2)c2ccc(OC)cc2N(S(=O)(=O)C(F)(F)F)C1C(=O)OCC (stereo not drawn) | -21.2%&-0.7%
CC(=O)c1cccc(NC(=O)C2CCN(S(=O)(=O)c3c(C)n[nH]c3C)CC2)c1 | -1.9%
COc1ccccc1S(=O)(=O)Cc1ccc(C(=O)NCc2cccnc2)o1 | 7.1%
CN(C)c1ccc(/C=C/C(=O)c2ccccc2)cc1[N+](=O)[O-] | ?
C[C@H](NS(=O)(=O)c1ccccc1)C(=O)N1CCN(C(c2ccccc2)c2ccccc2)CC1 | 2.3%
O=C(NCCCN1CCOCC1)c1coc2ccccc2c1=O | 0.8%
CS(=O)(=O)N1CCC(C(=O)NCC2CCCO2)CC1 (stereo not drawn) | -6.7%
CCCCCc1nnc(NC(=O)Cc2ccc([N+](=O)[O-])cc2)s1 | -11.3%
CC1=C(C(=O)OC(C)C)C(/C=C/c2ccccc2)NC(=O)N1 (stereo not drawn) | 15.4%
CC1CCCCN1C(=O)NC1CC(=O)N(c2ccc3c(c2)OCCO3)C1 (stereo not drawn) | -10.0%
O=C(Cc1ccc(S(=O)(=O)N2CCOCC2)s1)N1CCN(c2cccc(C(F)(F)F)c2)CC1 | -5.6%
Cc1cccc(NC(=O)c2ccc3c(c2)C(=O)N(c2ccccn2)C3=O)c1C | 9.0%
CCc1cc(C(=O)Cc2cnn(-c3ccccc3)c2)c(O)cc1O | 7.4%
CCc1cc2c(=O)nc3n(c2s1)Cc1ccccc1/C3=C(/O)c1ccccc1Cl | -24.0%
Cc1ccc(-c2nc(CS(=O)CC(=O)NC3CCCCC3)c(C)o2)cc1 (stereo not drawn) | 0.5%
Cc1cccc(C(=O)Nc2nnc(-c3cccnc3)o2)c1 | -16.7%
COCCn1c(=S)[nH]c2cc(C(=O)N3CCCC(C)C3)ccc2c1=O (stereo not drawn) | -11.1%
O=C(CCc1ccc(Oc2cc([N+](=O)[O-])cc([N+](=O)[O-])c2)cc1)N1CCCCC1 | -5.6%
COc1ccc(C(=O)Nc2cccc(-c3nc4ncccc4o3)c2C)cc1 | 17.8%
O=C(CC(NC(=O)c1ccccc1Cl)c1ccccc1)NC1=NCCS1 (stereo not drawn) | -13.3%
CC1(C)C(c2cccs2)=NC(c2ccccc2)N1O (stereo not drawn) | 6.2%
CC(=O)OC(C(=O)NCc1ccc(F)cc1)c1ccccn1 (stereo not drawn) | -15.4%
CCOc1cc(/C=C2/COc3ccccc3C2=O)ccc1OCC(=O)N(C)C | ?
CCn1nc(C)c(CNC(=O)c2cc(COc3ccccc3SC)on2)c1C | -5.4%
O=C(Cc1ccccc1F)NNC(=O)c1ccncc1 | -2.9%
COc1ccccc1N1CCN(c2ncc3c(n2)CCN(Cc2ccccc2F)C3)CC1 | 1.1%
Cc1nc2cc(NC(=O)NCc3ccco3)ccc2o1 | 1.9%
CCc1c(O)nc(SCC(=O)N2CCc3cc(OC)c(OC)cc3[C@@H]2C)[nH]c1=O | -6.2%
CCC(C(=O)OCC(=O)Nc1cccc(OC)c1)c1ccccc1 (stereo not drawn) | 1.1%
Cc1nc(-c2ccc(F)cc2)c(CC(=O)Nc2ccc(C)c(S(=O)(=O)N3CCOCC3)c2)s1 | 3.8%
O=C(NCCc1ccc(Cl)cc1)C1CCN(c2ncnc3c2nc2n3CCCCC2)CC1 | 0.1%
Cc1nnc(SCC(=O)N/N=C/c2cn(-c3ccccc3)nc2-c2ccc(F)cc2)n1-c1ccccc1 | 14.7%
COc1cc(/C=C2/NC(=O)N(Cc3ccccc3F)C2=O)cc(OC)c1OC | -17.7%
O=c1[nH]c(O)c(N=Nc2ccc(Cl)c(S(=O)(=O)Nc3ccccc3Cl)c2)c(=O)[nH]1 | -1.6%
COC(C[C@@H](O)[C@@H](C)[C@@H](O)COCc1ccccc1)OC | 4.0%
O=C(NC1(C(F)(F)F)NC(=O)N(Cc2ccco2)C1=O)c1cccs1 (stereo not drawn) | 0.1%
Cc1ccc(NC(=O)c2ccc(NC3=NC4CS(=O)(=O)CC4S3)cc2)cc1 (stereo not drawn) | -15.0%
CCCCNc1nc(=S)n(-c2ccccc2)c(C)c1C(C)=O | -4.2%
COc1ccc(NC(=O)N(C)C[C@@H]2Oc3ccc(NC(=O)NC(C)C)cc3CC(=O)N([C@H](C)CO)C[C@@H]2C)cc1 | -6.6%
COC(=O)c1ccc(OC(=O)C2CSC3(C)CCC(=O)N23)cc1 (stereo not drawn) | -13.9%
CC1CCC2(CC1)NC(=O)N(NC(=O)c1cccs1)C2=O (stereo not drawn) | -16.2%
Cn1nc(-c2ccccc2F)c2cc(C(=O)NCc3ccccc3Cl)sc21 | -9.4%
CCNC(=O)CC1C(=O)N(C)C(=S)N1NC(=O)c1ccc(Cl)cc1 (stereo not drawn) | 11.3%
Cc1ccc(NC(=O)Nc2ccc3c(c2)nnn3C)cc1C | 17.0%
CCOC(=O)N1CCC(NC(=O)c2cc(C(=O)Nc3ccc(S(=O)(=O)N4CCOCC4)cc3)ccc2CO)CC1 | -8.5%

# The list continues.
SMILES | VDR inh
O=C(Cn1c(NCCCO)nc2ccccc21)c1cccs1 | 10.2%
COC(=O)C1=C(C(=O)OC)[C@@H]2Nc3ccccc3[C@@]23C[C@@H](C(=O)OC)N=C3N1 | -10.1%
Cc1ccc(-n2ncc3c(=O)n(Cc4ccccc4C)cnc32)cc1C | 13.7%
CC1=CC(=O)N(c2ccc(C)cc2)C1c1ccc(Cl)cc1 (stereo not drawn) | 3.1%
O=C(CCc1ccc(O)c(O)c1)NNC(=S)NCCc1ccccc1 | -18.0%
COc1ccc(Cl)cc1NC(=O)CSc1nnc(CNC(=O)c2ccco2)o1 | -6.4%
COC(=O)c1ccccc1CCC(C)=O | 8.2%
CCN(CC)c1nn2c(=O)c(C(=O)NCc3ccc(OC)cc3OC)cnc2s1 | 11.6%
CCOc1ccc(CCNC(=O)c2cc(=O)[nH]c3ccc(S(=O)(=O)N4CCCCC4)cc23)cc1OCC | 19.2%
COc1ccc(-c2cc(C(F)(F)F)n3ncc(C(=O)NCc4ccco4)c3n2)cc1 | -6.5%
Cc1cc(NC(=O)Nc2cccc(Cl)c2)n(C(C)(C)C)n1 | 6.0%
Cc1nc(SCC(=O)Nn2c(-c3ccccc3)nc3ccccc3c2=O)n[nH]1 | -5.0%
COc1ccccc1NC(=O)CSC1=NC(=O)C(NC(C)=O)C(=O)N1 (stereo not drawn) | -2.1%
COc1ccc(NC(=O)c2noc(C(C)C)c2[N+](=O)[O-])cc1 | -14.3%
CCC(C(=O)NC1CCCC1)N(C(=O)Cn1nnc(-c2ccc(OC)c(OC)c2)n1)C1CCCCC1 (stereo not drawn) | 11.9%
CCc1nn2c(=O)c(S(=O)(=O)Nc3ccc(C)cc3C)c(C)nc2s1 | 9.8%
O=C(CCn1ccc2cc(S(=O)(=O)N3CCCC3)ccc21)NCc1ccccc1F | -12.1%&-17.9%
O=C(Nc1ccc(Cl)cc1)OC(CN1CCCCC1)C(F)(F)F (stereo not drawn) | 6.6%
CC(=O)N1CCCC1c1nc2ccccc2n1Cc1ccc(F)cc1 (stereo not drawn) | 21.2%
COCCCN=C1NN=C(c2cc(C)n(Cc3ccccc3Cl)c2C)CS1 | -24.7%

# Compounds from the list above that have a CF3 group (five):
SMILES | VDR inh
CCOC(=O)C1=C(c2ccccc2)c2ccc(OC)cc2N(S(=O)(=O)C(F)(F)F)C1C(=O)OCC (stereo not drawn) | -21.2%&-0.7%
O=C(Cc1ccc(S(=O)(=O)N2CCOCC2)s1)N1CCN(c2cccc(C(F)(F)F)c2)CC1 | -5.6%
O=C(NC1(C(F)(F)F)NC(=O)N(Cc2ccco2)C1=O)c1cccs1 (stereo not drawn) | 0.1%
COc1ccc(-c2cc(C(F)(F)F)n3ncc(C(=O)NCc4ccco4)c3n2)cc1 | -6.5%
O=C(Nc1ccc(Cl)cc1)OC(CN1CCCCC1)C(F)(F)F (stereo not drawn) | 6.6%

# Carrying on:
SMILES | VDR inh
CC(O)Cc1cn(CC(=O)N2CCN(C(=O)OC(C)(C)C)CC2)nn1 (stereo not drawn) | 1.1%
COc1ccc(C(CNC(=O)c2ccc(NS(=O)(=O)c3ccc(F)c(C)c3)cc2)N2CCOCC2)cc1 (stereo not drawn) | -0.3%
O=C(CSCc1ccc(Cl)cc1)N/N=C/c1ccc(Cl)cc1Cl | 13.2%
CC1CCC(NC(=O)C2CCN(S(=O)(=O)c3cccc4nonc34)CC2)CC1 (stereo not drawn) | 7.3%
CCn1ccnc1CN(C)C(=O)c1cc(COc2ccc(OC)c3ccccc23)on1 | -8.2%
CC1Cn2c(nnc2C23CC4CC(CC(C4)C2)C3)S1 (stereo not drawn) | 6.6%
Fc1cccc(CNCC2CCCO2)c1 (stereo not drawn) | -16.8%
O=C(CSc1nnc(-c2ccc(F)cc2)o1)NC1CCCC1 | -8.9%
CCNc1nc(NC(C)C)nc(N(C#N)C(C)C(=O)N(C)C)n1 (stereo not drawn) | 25.1%
Cc1ccc(S(=O)(=O)NCCCNC(=O)OCc2ccccc2)cc1 | -7.9%
Cc1ccc(NC(=O)Cc2ccc(F)cc2)cc1 | 12.6%
Cc1ccc(-c2cc(C(=O)NCCc3ccccn3)c3ccccc3n2)c(C)c1 | 3.6%
Cc1c(NC(=O)CSc2nnc(N)s2)c(=O)n(-c2ccccc2)n1C | 0.4%
O=C(Cc1ccc([N+](=O)[O-])cc1)NCCc1ccc2c(c1)OCO2 | -3.5%
COC(=O)C1CC2=C(CCCC2=O)N(c2ccccc2)C1=O (stereo not drawn) | -1.1%
Cc1ccc(NC(=O)c2cc([N+](=O)[O-])ccc2NCc2cccnc2)cc1 | 5.7%
CCCc1nnc(NC(=O)CCC(=O)N2CCN(Cc3ccc(OC)c(F)c3)CC2)s1 | -3.4%
COc1cc(OC)c(OC)cc1CN1CCSCC1 | -7.2%
O=C1NCCCC1C(=O)N/N=C/c1cccc([N+](=O)[O-])c1 (stereo not drawn) | -7.6%
O=C(CCn1c(=S)oc2ccccc21)Nc1cccc(O)c1 | -7.4%
COc1cccc(OC)c1C(=O)Nc1ccc(C)cc1C(=O)c1ccccc1 | -1.1%
COc1ccc(CCC(=O)Nc2ccc3c(c2)OCO3)cc1OC | 12.9%
O=C(NCCN1CCCCC1)Nc1ccc(Cl)cc1 | -16.6%
COc1cccc(NC(=O)c2ccccc2Br)c1 | -10.9%
CC(CNS(=O)(=O)c1ccc(Br)cc1)CN(C)C (stereo not drawn) | -18.5%
CCc1noc(C)c1C(=O)NNC(=O)c1ccc(F)cc1 | -14.5%
COc1ncc2nc(-c3ccc(F)cc3)c(=O)n(Cc3cccs3)c2n1 | -1.2%
CCc1ccc(N(CC(=O)NC(C)C)C(=O)CCC(=O)Nc2ccccn2)cc1 | -12.1%
O=C(CSCc1ccc(Br)cc1)NCCc1ccccc1 | -9.6%
O=C(NC1CCN(Cc2ccccc2)CC1)c1ccccc1OCc1ccccc1Cl | -3.8%
COc1cccc(-n2cc(C(=O)NCCCOC(C)C)c3ccccc3c2=O)c1 | 1.3%
COc1cccc(-c2nc(=S)c3c(n2CCCO)CCCC3)c1 | -9.9%
Cc1onc(-c2ccccc2Cl)c1C(=O)N(Cc1nc(-c2ccccc2)no1)C1CCCCC1 | -5.2%
CCOC(=O)c1c(CSc2ccccc2)oc2cc(Br)c(O)c(CN(C)C)c12 | 10.4%
CN(CC(=O)Nc1cccc(F)c1)C(=O)c1ccc(NC2CC2)c([N+](=O)[O-])c1 | -6.4%
CC1CCN(S(=O)(=O)c2ccc3c(c2)oc(=O)n3CC(=O)N2c3ccccc3CC2C)CC1 (stereo not drawn) | -6.4%
CC(=O)Nc1ccc(S(=O)(=O)NCCC(=O)NCc2ccncc2)cc1 | -15.6%
CCCCC(=O)Nc1ccc(NC(=O)CC)cc1OC | -8.9%
COc1ccc2[nH]c(=O)c(CN(CC3CCCO3)C(=S)Nc3ccc(C)cc3)cc2c1 (stereo not drawn) | -18.0%
COCCNC(=O)COC(=O)c1nsc(Cl)c1Cl | -4.8%
CCOC(=O)c1ccc(S(=O)(=O)NNC(=O)c2cccc(N(C)C)c2)cc1 | -12.7%
Cc1cccc(NC(=O)CSCC(=O)Nc2ccc(S(=O)(=O)N3CCOCC3)cc2)c1 | -0.2%
Cn1c(NCc2cccc(Br)c2)nc2ccccc21 | -1.4%

# Screening results as filed in PubChem.

# Not all compounds are listed; count on the stated rates, not on these rows.
